From PubChem BioAssay
Sa helicase inh – blocks Staphylococcus aureus DNA helicase. purified S. aureus helicase, fluorescence unwinding assay; about half of the hits fall short of the stated cut. inhibition, %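 (tested at about 80 µM)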. 120,000 tested, 0.05% active. AID 485395;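 active = both duplicates at 50% or more, or one of them with a favoured structure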;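 also: 0% = mean of negative control wells and 100% = mean of positive control wells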
MgrA-DNA mod – alters Staphylococcus aureus MgrA binding to DNA. fluorescence polarization. 84,000 tested, 0.13% active. inhibition, %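 (about 10 µg/mL by stock and volumes)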;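 active = above 50% in either of two replicates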;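 also: 0% = protein plus DNA without compound and 100% = DNA alone without protein; higher means less MgrA bound to DNA so lower polarization; one replicate is shown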
The depositor's hits bear a star; . = no result given; & = joins results of further samples.

SMILES	Sa helicase inh	MgrA-DNA mod
Cc1ccc(C(=O)Cn2nnc(-c3ccc(N)cc3)n2)cc1	8	0.3
Cc1ccc(CNC(=O)CCN2N=C(c3ccccc3)CCC2=O)cc1	-2	.
CCCc1nn2cc(-c3ccccc3)nc2s1	21	.
FC(F)(F)c1ccc(-c2nc(-c3cc(-c4ccccc4)no3)cs2)cc1	.	1.0
O=C(On1c(-c2ccccc2)cc2ccccc21)c1cccnc1Cl	-10	-0.6
Cc1cc(C)n(-c2ccc(C(=O)C(C#N)c3nc4ccccc4n3C)cc2)n1 (stereo unspecified)	-11	-0.2
COc1nc(NCC(C)C)nc(Oc2ccc(OCc3ccccc3)nn2)n1	13	.
COc1ccc2nc(-c3nc4ccccc4s3)sc2c1	15	.
O=C1NC2(CCN(C(=O)c3ncoc3-c3ccccc3)CC2)Oc2ccccc21	.	-0.4
CSc1ccc(-c2nc3ccc(C)cn3c2NC2CCCCC2)cc1	7	2.2
NC(=NS(=O)(=O)c1ccccc1)c1ccccc1F	12	-5.9
CC1CSc2nc3sc4c(c3c(=O)n21)CCCC4 (stereo unspecified)	-6	.
O=C(Oc1ccccc1N1CCCCC1)c1ccco1	.	-1.6
O=C1CCC(C(=O)NN2C(=O)c3cccc4cccc(c34)C2=O)=NN1	10	.
O=C(/C=C/c1ccco1)NC(=S)NC1CCCCC1	0	17
CCCc1cc(CN)on1	-9	-0.2
COc1ccc2[nH]c(C(=O)NC3CCN(Cc4ccccc4)CC3)cc2c1	.	0.0
Cc1nn(C(=O)Nc2c(-c3c(Cl)cccc3Cl)noc2C)cc1-c1ccccc1	.	2.8
N#CC(C#N)=Cc1cn(-c2ccccc2)nc1-c1ccc2c(c1)OCCO2	11	.
CCOC(=O)/C(=C(/C)N)C1CC(=O)N(c2ccc(C(=O)OCC)cc2)C1=O (stereo unspecified)	.	1.1
COc1ccc(OC)c(NC(=O)c2ccc(N3C(=O)CCC3=O)cc2)c1	-4	.
N#Cc1c(NC(=O)C2=COCCO2)sc2c1CCC2	1	.
O=C(O)c1ccccc1CSc1nc2cc(Cl)ccc2o1	-4	.
COc1ccc(CNCC(O)COCc2cccs2)cc1 (stereo unspecified)	-10	.
CC1(C)CC(NCc2ccco2)CC(C)(C)N1	7	-1.1

4 entries from above in a different format:
Cc1nn(C(=O)Nc2c(-c3c(Cl)cccc3Cl)noc2C)cc1-c1ccccc1
  Sa helicase inh = .
  MgrA-DNA mod = 2.8

N#CC(C#N)=Cc1cn(-c2ccccc2)nc1-c1ccc2c(c1)OCCO2
  Sa helicase inh = 11
  MgrA-DNA mod = .

CCOC(=O)/C(=C(/C)N)C1CC(=O)N(c2ccc(C(=O)OCC)cc2)C1=O (stereo unspecified)
  Sa helicase inh = .
  MgrA-DNA mod = 1.1

COc1ccc(OC)c(NC(=O)c2ccc(N3C(=O)CCC3=O)cc2)c1
  Sa helicase inh = -4
  MgrA-DNA mod = .

The list goes on.
SMILES	Sa helicase inh	MgrA-DNA mod
CCOC(=O)c1c(-c2ccccc2)oc2c(-c3ccccc3)cc(O)cc12	9	-7.8
O=C(NC1CC1)c1ccc(CSCc2cccc(F)c2)o1	-16	1.0
COC(=O)c1ccccc1OC(=O)c1ccncc1	6	0.9
Cc1ccc2cc3cc(C(=O)NC4CC4)oc3nc2c1	6	.
O=C(O)CN1CCSC1=O	4	.
O=S(=O)(c1cccs1)c1cccs1	.	0.8
CCCCn1c(CN2CCOCC2)nc2ccccc21	-16	.
Oc1cccc2c1NCCC2	8	32
O=C(NCC1CCCO1)C12CC3CC(CC(C3)C1)C2 (stereo unspecified)	-16	3.0
COc1ccc2ccccc2c1CN1CCN(C(=O)c2ccco2)CC1	-18	.
Cc1ccccc1Cn1c(C(C)NC(=O)C(C)(C)C)nc2ccccc21 (stereo unspecified)	-20	.
CCn1c(Sc2nnnn2-c2ccccc2)nc2cc(S(=O)(=O)N3CCOCC3)ccc21	4	.
CC(Sc1nc(-c2ccccc2)cc(C(F)(F)F)n1)C(=O)O (stereo unspecified)	4	3.2
CC1(C)Cc2c(ccc3ccccc23)C(=O)N1	5	1.4
Fc1ccc(NC(=S)NCCNC(=S)Nc2ccc(F)cc2F)c(F)c1	.	-1.5
CC1=Nc2ccccc2N=C(NC(=O)c2ccccc2)C1c1ccccc1 (stereo unspecified)	-2	.
CCCSc1nnc(Nc2ccccc2OC)s1	-21	.
COC(=O)c1cccc(COC(=O)c2cccnc2SC)c1	3	.
CC(Oc1ccccc1)C(=O)N1CCCCCC1 (stereo unspecified)	-3	.
COC(=O)/C=C1/N/C(=N/c2nc3cc(C)ccc3o2)NC1=O	2	-2.3
COc1ccc(S(=O)(=O)N2CCCc3cccc(O)c32)cc1	13	.
O=C1C(=O)N(CCCN2CCOCC2)C(c2ccccc2)/C1=C(\O)c1ccc(S(=O)(=O)N2CCOCC2)cc1 (stereo unspecified)	-30	.
CC1CCc2c(sc3ncnc(NC4CC4)c23)C1 (stereo unspecified)	-11	.
Cc1nn(CCCC(=O)N(C)Cc2ccccc2)c(=O)c2cc3sccc3n12	2	-1.1
CCOCC(=O)Nc1cccc(Br)c1	11	-1.4

5 compounds drawn at random from those above, as already listed:
SMILES	Sa helicase inh	MgrA-DNA mod
O=C1C(=O)N(CCCN2CCOCC2)C(c2ccccc2)/C1=C(\O)c1ccc(S(=O)(=O)N2CCOCC2)cc1 (stereo unspecified)	-30	.
Fc1ccc(NC(=S)NCCNC(=S)Nc2ccc(F)cc2F)c(F)c1	.	-1.5
COC(=O)/C=C1/N/C(=N/c2nc3cc(C)ccc3o2)NC1=O	2	-2.3
CCCSc1nnc(Nc2ccccc2OC)s1	-21	.
Cc1ccccc1Cn1c(C(C)NC(=O)C(C)(C)C)nc2ccccc21 (stereo unspecified)	-20	.

Continued:
SMILES	Sa helicase inh	MgrA-DNA mod
CC(C)c1ccc(NC(=O)CSc2n[nH]c(=O)n2Cc2ccco2)cc1	-23	.
COc1ccc(C(=O)OC(C)CN2CCN(C)CC2)cc1 (stereo unspecified)	12	-4.2
CCOC(=O)c1sc2ccccc2c1N	.	-0.5
Cc1ccccc1C(=O)OCC(=O)c1sc2ccc(Cl)cc2c1C	.	-0.6
O=C(Cc1csc2nc3sc4c(c3c(=O)n12)CCC4)N(CCO)CCO	-3	.
COC(=O)c1ccc(C(c2cc3c(cc2O)OCO3)N2CCN(c3ccccc3)CC2)cc1 (stereo unspecified)	9	.
CC(=O)N1CCN(CC(O)COCc2ccccc2F)CC1 (stereo unspecified)	-3	.
FC(F)(F)c1cccc(Oc2ccc3nnc(-c4ccccc4)n3n2)c1	.	-1.2
O=S1(=O)CC(O)C(NCCc2ccccc2)C1 (stereo unspecified)	10	.
C=CCNC(=O)C1CCCN(S(C)(=O)=O)C1 (stereo unspecified)	-10	-0.2
Cc1onc(-c2ccccc2Cl)c1C(=O)Nc1ccc(S(=O)(=O)Nc2nccs2)cc1	.	1.2
N#Cc1ccc(OCCO)cc1	.	-2.6
CCc1ccc(NC(=O)C2CC(=O)Nc3ncnn32)cc1 (stereo unspecified)	40	.
CN1C(=O)N(C)C(=O)C(C2CCC3OCC2O3)(C2CCC3OCC2O3)C1=O (stereo unspecified)	11	5.5
O=C(COc1c(Br)cc(Br)c2cccnc12)N1CCCCC1	12	1.4
C=CCc1c(C)nc(SC)nc1Nc1ccc(C)cc1	-24	.
O=C1c2ccccc2CN1CCNS(=O)(=O)c1ccc2oc3ccccc3c2c1	8	2.2
c1ccc(-c2nc(SCC3CCOCO3)oc2-c2ccccc2)cc1 (stereo unspecified)	-2	.
N#Cc1ccc(NC(=O)COCC(=O)O)cc1	.	-4.0
O=C(c1nn2c(C(F)(F)F)cc(-c3ccccc3)nc2c1Br)N1CCN2CCCC2C1 (stereo unspecified)	-2	1.8
CC(=O)Nc1c(-c2ccccc2)oc2ccccc2c1=O	.	-0.7
CSc1nc(C)[nH]c(=O)c1C#N	.	-1.0
CCC(=O)Nc1ccc(C(=O)CN2C(=O)NC3(CCCc4ccccc43)C2=O)cc1 (stereo unspecified)	-16	.
COc1ccc(NC(=O)C2(N(Cc3ccccc3)C(=O)Cn3nnnc3N)CCCCC2)cc1	1	.
Cc1ccc(NC(=O)CN2C(=O)/C(=C/c3ccccc3)SC2=S)cc1C	.	0.1
SMILES	Sa helicase inh	MgrA-DNA mod
O=C(NC(=S)c1c(-c2ccccc2)cc2ccccn12)c1ccccc1	-7	-0.8
Cc1ccc(N=Cc2c[nH]c3ccccc23)nc1	1	1.8
Cc1noc2ncnc(SCC(=O)Nc3cc(Cl)cc(Cl)c3)c12	.	-0.2
COCCNC(=O)c1cc2ncc(Br)cn2n1	-9	-2.3
CCCCC[C@H](O)/C=C/C=C\CCCCCCCC(=O)O	.	6.3
CCOC(=O)CSc1nnc(CSc2nc(N)c3c(C)c(C)sc3n2)n1-c1ccccc1	9	.
CCOc1ccc(C(=O)Nc2ccccc2-c2nc3ccccc3[nH]2)cc1	.	1.3
Cc1ccc(Oc2ccc3c(c2)C(=O)N(c2cccc(O)c2)C3=O)cc1	21	.
CN1CCN(CC(=O)CCN2C(=O)/C(=C/c3ccccc3Cl)SC2=S)CC1	4	2.9
O=c1[nH]c2cc3c(cc2cc1CN(Cc1nnnn1CCc1ccccc1)C1CCCC1)OCCO3	6	-3.2
Cc1csc(NC(=O)CCc2c(C)nc3c(c(C)nn3-c3ccccc3)c2C)n1	-4	.
O=C(O)CCCCC1SCC2NC(=O)NC21 (stereo unspecified)	.	0.2
Cc1nnc2n1NC(c1ccc(Cl)cc1)=CS2	19	.
COc1cccc(CNCc2ccccc2OC)c1	16	.
COc1ccccc1NC(=O)COC(=O)C12CC3CC(CC(C3)C1)C2	-12	-2.0
CC(C)NC(=O)C1CCCN(C(=O)N2CCOc3ccccc32)C1 (stereo unspecified)	4	.
Cc1sc(Cc2ccc(Cl)cc2)nc1O	5	-0.9
CNC(=S)NNC(=O)c1ccncc1	.	-1.9
CCc1ccc(NC(=O)N(Cc2cccnc2)Cc2ccco2)cc1	5	-0.7
Nc1nnc(SCC(=O)N2CCN(c3ccccc3)CC2)s1	2	-2.0
CCC(=O)c1c[nH]c2ccccc12	8	0.7
Fc1ccc(-c2csc(NC3=NCCC3)n2)cc1	-3	-3.6
CCN1CCOC(CC(=O)Nc2ccccc2C)C1=O (stereo unspecified)	2	0.3
Cc1ccc(-c2ccc(CCC(=O)O)o2)cc1	14	14
CC(N=C1NS(=O)(=O)c2ccccc21)c1ccc(F)cc1 (stereo unspecified)	-7	.

Look-ups from the list:
Value of CC(N=C1NS(=O)(=O)c2ccccc21)c1ccc(F)cc1 (stereo unspecified) in Sa helicase inh: -7
Value of Cc1sc(Cc2ccc(Cl)cc2)nc1O in MgrA-DNA mod: -0.9
Value of CC(C)NC(=O)C1CCCN(C(=O)N2CCOc3ccccc32)C1 (stereo unspecified) in Sa helicase inh: 4
Value of Cc1noc2ncnc(SCC(=O)Nc3cc(Cl)cc(Cl)c3)c12 in MgrA-DNA mod: -0.2
Value of Cc1nnc2n1NC(c1ccc(Cl)cc1)=CS2 in Sa helicase inh: 19

New compounds follow
SMILES	Sa helicase inh	MgrA-DNA mod
CC(C)(C)c1ccc(-c2nnnn2-c2ccccc2)cc1	18	-0.2
CNC(=S)NC1CC2CCC(C1)N2Cc1ccccc1 (stereo unspecified)	9	-0.3
COc1ccc(CCNc2cc(C)nc(N)n2)cc1OC	.	-1.7
CNC(=O)C1CC(=O)N(CCc2ccc(C)cc2)C1 (stereo unspecified)	-1	0.4
CSc1nc(C)cc(OCC(=O)N2CCCCC2)n1	12	-0.7
Cc1ccc(N/N=C(\C#N)C(=O)c2cc(C)nn2C(C)(C)C)cc1	30	.
COc1ccc2nc(NC(=O)c3nn(C(C)C)c(=O)c4ccccc34)sc2c1	13	.
CCCn1c(SCCCc2ccccc2)nc2c1c(=O)[nH]c(=O)n2C	-6	1.0
OCC(O)Cn1c(SCCSc2nc3ccccc3n2CC(O)CO)nc2ccccc21 (stereo unspecified)	9	.
C=CCc1cc(C=C2C(=O)NC(=O)NC2=O)cc(OC)c1OC	-11	1.5
Cc1csc2nc(O)c(C(=O)NCC(C)O)c(=O)n12 (stereo unspecified)	9	.
CCn1c(=O)c2cc(C(=O)N(C)c3cccc(C(F)(F)F)c3)sc2c2ccccc21	22	2.8
CCN(CC)C(=O)CSc1ccc2c(c1)OCCO2	-6	.
COc1ccc(NC(=O)C(c2ccc(OC)cc2)N(C)C(=O)c2cnccn2)cc1 (stereo unspecified)	16	.
COc1ccc(-c2nnc(NC(=O)C(C)Sc3ccc(C)cc3)s2)cc1 (stereo unspecified)	0	.
O=C(Cn1c(CN2CCOCC2)nc2sc3c(c2c1=O)CCC3)N1CCc2ccccc21	1	.
CC(C)(C)C1CCc2nc(NC(=O)Cc3cn4ccsc4n3)sc2C1 (stereo unspecified)	7	.
O=C(O)CCC(=O)Nc1ccccc1C(=O)c1ccccc1	13	.
Cc1cc(OCC(=O)NCc2ccc3c(c2)OCO3)ccc1Cl	-1	1.0
CC(C)N(C(=S)Nc1ccc(Oc2ccccc2)cc1)C(C)c1ccccn1 (stereo unspecified)	14	-1.1
CC(=O)Nc1ccc(S(=O)(=O)NCCn2ccc3ccccc32)cc1	-157	.
Cc1cc(C(=O)OCC(=O)NCc2ccco2)c(C)o1	-9	.
c1ccc2c(c1)nnc1nncn12	.	-0.2
CC(C)CC(C(=O)c1c(N)n(C)c(=O)n(C)c1=O)N1C(=O)c2ccccc2C1=O (stereo unspecified)	-12	.
Cc1cc(C)n(C2CCS(=O)(=O)C2)n1 (stereo unspecified)	.	-1.0
O=C1CCCCCN1Sc1c(-c2ccccc2)nc2sccn12	-24	.
C=CCn1c(O)c(C=Nc2ccccc2)sc1=S	5&4	4.2&-1.1
O=C(Nc1ccc(C(F)(F)F)cc1)Nc1ccc(N2CCN(c3ncccc3C(F)(F)F)CC2)nc1	-4	.

Some of the entries above in a different format.
Second line of a record: Sa helicase inh	MgrA-DNA mod
OCC(O)Cn1c(SCCSc2nc3ccccc3n2CC(O)CO)nc2ccccc21 (stereo unspecified)
    9	.
C=CCn1c(O)c(C=Nc2ccccc2)sc1=S
    5&4	4.2&-1.1
COc1ccc2nc(NC(=O)c3nn(C(C)C)c(=O)c4ccccc34)sc2c1
    13	.
O=C(Nc1ccc(C(F)(F)F)cc1)Nc1ccc(N2CCN(c3ncccc3C(F)(F)F)CC2)nc1
    -4	.

These rows are one share of the data (hit frequency here may not be typical).
